Screening data deposited in PubChem by several laboratories.
FGF22 binding – FGF22 (human) thermal shift binding | AID 651658 | Q9HCT0 | recombinant FGF22 thermal shift, SYPRO orange fluorescence; percent of sucrose octasulfate shift, DMSO zero | calls only at 9.99 µM | 340,000 compounds, 1.5% hits;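 active means melting point raised past a set limit in the mean and every replicate; inconclusive means no clear call; three in four hits are not shown here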
Target sequence (Q9HCT0 whole entry, looked up): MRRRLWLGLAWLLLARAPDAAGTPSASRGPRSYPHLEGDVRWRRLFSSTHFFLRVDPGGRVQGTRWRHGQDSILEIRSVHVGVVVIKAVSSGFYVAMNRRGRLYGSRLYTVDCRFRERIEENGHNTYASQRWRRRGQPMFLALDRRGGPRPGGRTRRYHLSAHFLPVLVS
Vif A3G – inhibitors of Vif binding to APOBEC3G peptide, primary screen, biochemical, TR-FRET, GST-Vif 1-94, biotin-A3G peptide, dose response retest (AID 1117319). TR-FRET GST-Vif / biotin-A3G peptide binding; higher % means a stronger effect; test concentration not given here; strong numbers were not always called active. one-dose inhibition, %; IC50 in µM for titrated hits. 260,000 compounds, 0.57% hits;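 active means above the screen mean plus three standard deviations and confirmed in dose response; inconclusive means results disagree or hit not tested in dose response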;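 further: Vif residues 1-94 fused to GST binding biotinylated APOBEC3G peptide 110-148; 0% = full assay without inhibitor and 100% = GST in place of GST-Vif; retest series ran down from 100 µM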
Ecoli rRNA inh – selective bacterial rRNA inhibition in E. coli; GFP signal change (wild-type ribosome), % (no concentration beside the values); AID 720706; E. coli WT GFP vs humanized-ribosome RFP mutants, fluorescence, 24 h; active compounds read low; DMSO median 0, no signal -100; 350,000 compounds, 1.6% hits;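 active means significant combined selectivity score with lowered wild-type GFP, culture density cut under 30%, mutant RFP and density less affected; inactive means any of these conditions unmet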; further: one replicate is shown; some compounds called inactive have numbers as strong as hits
Ecoli growth – E. coli growth inhibition. OD600 absorbance (concentration not given with the values). 330,000 compounds, 0.21% hits. Escherichia coli growth, OD600, 23 h; active compounds read low;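 active means OD600 absorbance below the run mean of sample wells minus 3.6 SD, in any replicate, cut at about 0.56 in these data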;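 further: stock transfer was 300 nL into about 60 µL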
AF4-AF9 inh – MLL-AF4/AF9 protein interaction inhibition | P42568 | AlphaScreen, biotin-AF4 peptide binding to FLAG-AF9 | inhibition, % at 10 µM | 350,000 compounds, 0.47% hits | AID 651704;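 active means every replicate reaching a set inhibition limit, whatever the replicate mean, cut at about 25% in these data; inconclusive means mean inhibition reaches that limit but some replicates miss it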;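 further: 0% = plate neutral control median and 100% = total signal loss; the record names both 10 and 1 µM as test concentration; the first replicate is given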
Target sequence (P42568 whole entry, looked up): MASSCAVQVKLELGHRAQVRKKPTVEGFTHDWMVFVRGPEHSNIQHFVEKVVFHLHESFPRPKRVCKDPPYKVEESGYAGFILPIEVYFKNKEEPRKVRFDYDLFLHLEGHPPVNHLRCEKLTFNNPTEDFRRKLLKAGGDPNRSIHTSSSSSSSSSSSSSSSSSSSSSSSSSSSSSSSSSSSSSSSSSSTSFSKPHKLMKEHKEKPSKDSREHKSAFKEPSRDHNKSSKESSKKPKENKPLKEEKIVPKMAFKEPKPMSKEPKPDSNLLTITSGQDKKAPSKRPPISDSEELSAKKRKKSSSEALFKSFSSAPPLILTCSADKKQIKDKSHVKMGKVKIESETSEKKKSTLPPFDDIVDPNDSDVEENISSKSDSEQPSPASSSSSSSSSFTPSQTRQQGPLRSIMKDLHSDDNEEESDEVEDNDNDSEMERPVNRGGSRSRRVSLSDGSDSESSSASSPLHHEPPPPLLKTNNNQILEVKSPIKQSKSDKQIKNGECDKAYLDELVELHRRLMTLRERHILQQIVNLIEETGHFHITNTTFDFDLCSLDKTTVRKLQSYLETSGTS
HNF4A DNA FP – change in binding of human HNF4 alpha to DNA; P41235; HNF4a-FITC DNA binding, fluorescence polarization, 1 h; activity change, % at 10 µM; 360,000 compounds, 0.3% hits; AID 1224865; in the data active means activity change above about 30%, passing the limit was not always enough;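 further: controls were the assay level and a saturating level of protein; the project sought stronger binding though the title names inhibitors; some compounds called inactive have numbers as strong as hits; positive values seem to mean higher polarization but the record does not say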
ALR H2O2 inh – inhibitors of human sulfhydryl oxidase ALR; P55789; purified ALR, DTT oxidation, H2O2 HRP-luminol luminescence; inhibition, % (concentration not given with the values); 290,000 compounds, 3.8% hits; AID 485317;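 active means mean and each replicate at 75% or more; inconclusive means only one of the two met; inactive means neither met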;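 further: stock transfer was 7.5 nL into about 7.5 µL; 0% = neutral wells and 100% = wells with inactivated enzyme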
Target sequence (P55789 whole entry, looked up): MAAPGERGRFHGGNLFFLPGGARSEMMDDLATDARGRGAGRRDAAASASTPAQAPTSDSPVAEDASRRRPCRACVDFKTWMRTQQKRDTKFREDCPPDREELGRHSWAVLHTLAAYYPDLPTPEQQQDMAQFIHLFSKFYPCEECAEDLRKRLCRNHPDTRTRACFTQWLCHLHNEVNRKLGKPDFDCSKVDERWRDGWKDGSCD
Ecoli rRNA inh OD600 – recorded beside Ecoli rRNA inh, whose call it bears; OD600 change, %; measured here: OD600 growth;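 optical density of the mix in the first replicate; 0 = DMSO median and -100 = no signal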
Ecoli rRNA inh RFP – also measured in Ecoli rRNA inh; calls as there; RFP signal change, %; measured here: RFP humanized mutant strains;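 first replicate; 0 = DMSO median and -100 = no signal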
* = called active by the depositor; i = inactive; ? = inconclusive; . = no result given; + = active, no number. Only part of the results is shown (hit frequency here may not be typical).

Compound,FGF22 binding,Vif A3G,Ecoli rRNA inh,Ecoli rRNA inh OD600,Ecoli rRNA inh RFP,Ecoli growth,AF4-AF9 inh,HNF4A DNA FP,ALR H2O2 inh
CCC(=O)N(C)C[C@H]1Oc2cc(-c3ccccc3)ccc2S(=O)(=O)N([C@H](C)CO)C[C@@H]1C,i,.,-8,-15,-2.5,.,-5.4,.,.
O=C(CNC(=O)c1sc2ccccc2c1Cl)NCc1cccc(C(F)(F)F)c1,i,.,14,14,4.6,0.72,-6.0,0.1,0
Cc1scc(C(=O)Nc2ccon2)c1-c1ccccc1,.,8%,.,.,.,0.72,.,2.9,-12
O=C(Nc1nc2c(s1)CCCC2)c1ccc2ncsc2c1,+,10%,-41,-58,-7.5,0.68,10,4.5,43
Fc1ccc(NCc2cccnc2)cc1,.,-5%,.,.,.,0.65,.,-0.4,.
O=C(Cc1csc(Nc2nc(=S)[nH]c3ccccc23)n1)N1CCN(c2cccc(Cl)c2)CC1,i,.,7,3,18,0.74,2.3,3.0,-17
Cc1ccc(S(=O)(=O)NCC(=O)NC2CCCC2)cc1,.,6%,.,.,.,0.68,.,1.1,.
COc1cccc(CNC(=O)CCS(=O)(=O)c2ccc3c(c2)oc(=O)n3C)c1,i,.,9,3,1.7,0.71,3.4,2.1,-8
CCC(=O)NCc1cc(-c2nn(C)c(=O)c3ccccc23)ccc1C,.,26%,.,.,.,0.67,.,1.1,-1
O=S(=O)(c1cccc2ccccc12)N1CCSC1,.,4%,.,.,.,0.68,.,0.0,-4
CC(C)NC(=O)N[C@@H]1CC[C@H](CCNS(=O)(=O)c2ccc(Cl)cc2)O[C@H]1CO,i,.,2,8,-3.1,.,-1.1,.,.
COc1ccc(S(=O)(=O)Nc2c(NC3CCCCC3)c3ccccc3oc2=O)cc1Cl,i,-4%,6,11,2.7,0.68,-2.5,-2.1,1
CCCc1[nH]nc2c1C(c1cc(OC)ccc1F)C(C#N)=C(N)O2 (centres undefined),i,14%,7,0,-3.6,0.69,4.0,1.9,60
COc1ccc(C(C(=O)NC2CCCC2)N(CCC(C)C)C(=O)CCC(=O)Nc2cc(C)on2)cc1 (centres undefined),i,.,1,5,-0.3,0.64,-3.2,-0.2,-5
C[C@@H]1CN([C@H](C)CO)C(=O)c2cc(NC(=O)Cn3cnnn3)ccc2O[C@H]1CN(C)S(=O)(=O)c1ccccc1,i,.,1,1,0.7,.,-1.3,.,.
O=C(Nc1nccs1)c1cnccn1,.,15%,.,.,.,0.7,.,-0.9,-7
Cc1ccc(N2CCN(S(=O)(=O)c3ccc4oc(=O)ccc4c3)CC2)c(C)c1,i,.,-10,-11,-3.2,0.68,-5.1,1.2,.
Cc1ccc(S(=O)(=O)NCCC(=O)Nc2cc(F)ccc2C)cc1C,i,.,0,-13,1.1,0.67,-1.2,2.0,.
O=C(NCc1cccs1)c1ccc2ccccc2n1,.,-4%,-26,-31,-3.7,0.65,-4.5,-1.1,-3
O=C(O)c1ccccc1C(=O)NCCc1ccc(Cl)cc1,i,17%,7,3,0.3,0.7,1.8,0.4,0
CCOc1ccc(NC(=O)Cn2nnc(-c3ccccc3NC(=O)CC)n2)cc1,.,19%,.,.,.,0.72,.,-1.4,-1
Cc1cccc(C(=O)Nc2ccc(NC(=O)c3cccc(C)c3)cc2)c1,i,7%,5,16,-3.7,.,-1.1,-1.7,.
Cn1c(/C=C/c2ccc(Cl)cc2)nc2ccccc2c1=O,i,-29%,17,42,3.2,0.66,-0.5,2.8,-5
Oc1ccccc1C=Nc1ccccc1-c1nc2ccccc2[nH]1,.,-2%,.,.,.,0.67,.,1.9,34
CCOC(=O)C1CCCN(C(=O)CCNS(=O)(=O)c2cc(Br)cnc2N)C1 (centres undefined),i,1%,0,-5,-1.5,0.7,-3.0,-0.3,4
O=C(c1ccco1)N1c2ccccc2Sc2ccccc21,.,?,.,.,.,0.72,.,1.1,4
COc1ccc(C2C3=C(CCCC3=O)N(CC(=O)O)C3=C2C(=O)CCC3)cc1Br,i,.,11,12,3.0,.,-4.3,-0.2,.
C[C@@H]1CN([C@H](C)CO)C(=O)Cc2cc(NC(=O)C3CC3)ccc2O[C@@H]1CN(C)C(=O)Nc1ccccc1,i,.,3,4,-0.4,.,-2.1,.,.
CCOc1ccc(-n2nnnc2SCC(=O)NC2CCCC2)cc1,i,.,5,6,1.5,0.7,0.9,3.8,.
COc1cccc(-n2nnc3c(=O)n(Cc4ccc(C)cc4)cnc32)c1,.,-6%,.,.,.,0.73,.,-3.9,-3
O=C(NCc1ccccc1)c1cc(-c2ccncc2)nc2ccc(S(=O)(=O)N3CCOCC3)cc12,i,-11%,6,-2,3.7,0.65,-2.2,-4.3,-25
Cc1ccc2nc(-c3ccc(CN4CCC5(CC4)CNc4ccccc45)cc3)c(-c3ccccc3)nc2c1,i,.,-48,-72,-1.9,.,-4.0,.,.
CCCCCCCCN1C(=O)[C@H](CC(=O)NCC23CC4CC(CC(C4)C2)C3)C[C@@]2(C(=O)OCC)CCCC=C12,i,.,20,22,3.4,.,-2.4,-0.9,.
Nc1ccc(Nc2ccncc2)cc1,i,7%,-3,16,3.4,.,16,3.7,.
CCCNC(=O)CN(C1CCCCC1)S(C)(=O)=O,.,?,.,.,.,0.74,.,0.1,-2
CCOCCCNS(=O)(=O)c1ccc(NC(=O)N2c3ccccc3Sc3ccccc32)cc1,.,9%,.,.,.,0.67,.,-1.3,21
CCOc1ccc(NC(=O)CC2C(=O)NCCN2C(=O)c2ccc(Cl)cc2)cc1 (centres undefined),i,-2%,6,3,-1.4,0.73,-4.0,1.0,-4
CSc1ccccc1C(=O)N1CCCC(CNC(=O)c2ccc(F)cc2)C1 (centres undefined),i,.,5,6,-0.1,0.69,-0.6,-1.5,-22
CC(=O)Nc1ccc(S(=O)(=O)NCc2ccc(C(=O)NC(C)c3ccccc3)cc2)cc1 (centres undefined),i,?,-3,4,-4.8,0.67,-67,0.3,-1
CCC1=NN(C(=O)c2cccc([N+](=O)[O-])c2)C(O)(c2ccc(C)cc2)C1 (centres undefined),i,.,7,14,1.1,0.61,-1.0,-2.1,10
C=CCN1C(=O)/C(=C2/Sc3ccc(OC)cc3N2C)SC1=NCc1ccccc1,i,7%,17,18,2.8,0.71,-1.5,35,12
CCCNC(=O)N1CC2(CCN(C(=O)C3CC3)CC2)c2c([nH]c3cc(OC)ccc23)[C@@H]1CO,i,.,2,2,3.9,.,0.8,.,.
O=C(O)COc1ccc(NC(=O)C(c2ccccc2)c2ccccc2)cc1,i,.,-13,-2,-6.5,0.66,-1.8,-1.1,-1
COc1cc2c(cc1NC(=O)CCCCCN1C(=O)CCC1=O)oc1ccccc12,.,3%,.,.,.,0.76,.,-0.9,-14
CC(CN1CCCCC1)C(=O)NNC(=O)C12CC3CC(CC(C3)C1)C2 (centres undefined),i,8%,25,16,2.9,0.67,1.6,-1.6,-8
CCCC#Cc1cnc2c(c1)C(=O)N([C@H](C)CO)C[C@@H](C)[C@H](CN(C)CCC)O2,i,.,3,7,4.1,.,6.2,.,.
COC(=O)c1c(NC(=O)C(C)C)sc2c1CCN(Cc1ccccc1)C2,i,.,-11,-28,5.0,0.65,-9.3,0.7,-9
CCC(=O)N1[C@H](CO)[C@H](c2ccccc2)C12CN(C(=O)Cc1ccccc1)C2,i,.,0,-2,-0.7,.,-1.1,.,.
O=C1Nc2ccccc2/C1=C/c1cccnc1,i,4%,9,11,1.8,0.64,0.6,0.0,55
C[C@@H]1CN([C@@H](C)CO)C(=O)c2cc(C#Cc3cccnc3)cnc2O[C@@H]1CN(C)C,i,.,3,-2,3.2,.,-7.8,.,.
Cc1cccc(NC(=O)c2nc[nH]c2C(=O)N[C@@H](CCCCNC(=O)OC(C)(C)C)C(=O)OC(C)(C)C)c1,i,-2%,11,-3,2.7,.,3.6,-0.2,-9
Cc1cc(NC(=O)C(=O)c2c(C)[nH]c3ccccc23)no1,i,-4%,0,1,2.4,0.65,-0.4,-0.1,45
O=C(CCCn1cnc2ccccc2c1=O)Nc1ccccc1F,i,.,6,5,-0.4,0.65,-4.3,0.4,-6
C[C@@H]1CN([C@H](C)CO)C(=O)c2cc(NC(=O)C3CCCCC3)ccc2O[C@@H](C)CCCCO[C@@H]1CN(C)Cc1ccccc1,i,.,2,-9,6.6,.,5.7,.,.
CC1(Oc2ccccc2-c2ccno2)CCN(Cc2csc3ccccc23)C1 (centres undefined),i,.,-26,-32,2.8,.,3.4,-7.3,.
C/C(CCc1oc2ccc(Cl)cc2c1-c1ccc(C)o1)=N\O,.,-2%,.,.,.,.,0.5,-1.6,2

Next part:
Compound,FGF22 binding,Vif A3G,Ecoli rRNA inh,Ecoli rRNA inh OD600,Ecoli rRNA inh RFP,Ecoli growth,AF4-AF9 inh,HNF4A DNA FP,ALR H2O2 inh
O=S(=O)(NCCCN1CCOCC1)c1ccc2ccccc2c1,i,-12%,10,7,3.6,0.66,0.0,2.6,-1
CCNC(=S)Nc1ccc(OCC)cc1,i,.,5,9,3.1,0.72,-2.2,1.6,-7
Cc1cc(C)n(C(=O)COc2ccccc2C)n1,.,17%,.,.,.,0.67,.,1.4,-2
CCCOC1CCCN(C(=O)c2cc(COc3c(F)cccc3F)on2)C1 (centres undefined),i,.,0,0,0.1,0.69,-3.3,-4.0,-12
COc1ccc2[nH]c3c(=O)n(/N=C/c4ccc(OC)c(CN5CCCC5)c4)c(C)nc3c2c1,i,.,-7,0,1.8,.,-19,7.1,.
C[C@H]1CN([C@@H](C)CO)C(=O)CCCn2cc(nn2)CO[C@@H]1CN(C)Cc1ccccc1,i,.,4,2,-1.5,.,-1.4,.,.
CC(=O)C(Cc1ccccc1)NC(=O)CN1c2cccc3cccc(c23)S1(=O)=O (centres undefined),i,-5%,-3,12,9.9,0.61,-4.5,1.3,-5
O=Nc1c(-c2ccccc2)n(O)[n+]([O-])c1-c1ccccc1,i,7%,-3,2,-3.6,.,-0.9,2.4,.
